Source: PubChem
PINK1 expr mod: changes PINK1 expression. Potency, µM (titrated, usually from 76.6 µM), for the others: at the top dose activation (PINK1 increase), usual class: activators. 0.2% of 410,000 active. PINK1 immunofluorescence, high-content cytometry, 24 h; active = well fitted activation curve with a large enough effect; inconclusive = small, poorly fitted or top-dose-only effect; inactive = flat fitted curve, though single readings scatter; cell line not stated here;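 further: potency means the concentration at half of the fitted maximal effect; % of control where 0% means no effect; nearly all actives have a fitted effect of over 65% in size; a mitochondrial uncoupler was the plate control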
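A stable cell line was treated with compounds at 5 concentrations for 24 hours, with CCCP as control. PINK1 levels and mitochondrial localization were measured by immunofluorescence with mitochondrial, cell and nuclear markers after fixation, read by laser-scanning cytometry.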
Six1-Eya2 blk: Six1/Eya2 interaction inhibition. activity change, % (concentration not given with the values). AID 651725. 0.56% of 360,000 active. AlphaScreen GST-Six1/His-Eya2 binding, biochemical; active compounds read low; control for the full effect not named in the record. Q15475+O00167; in the data active = activity change below about -65%; inconclusive = about -30% to -65%; inactive = above about -30%; further: on the % scale 0 is the no-effect control and ±100 the full control effect
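AlphaScreen luminescence read after one hour at 37 °C in darkness. Pin-transferred compounds met GST-Six1 and His-Eya2 protein (5X stock 250 nM/500 nM) plus glutathione donor and Ni-chelate acceptor beads (5X, 50 ug/mL).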
TRPML1 inh: human mucolipin-1 channel inhibition; Q9GZU1; TRPML1-inducible cells, Ca2+ dye fluorescence, FDSS; active compounds read low; inhibition of EC80 agonist-evoked calcium signal; activity change, negative = inhibition, % (no concentration beside the values); 0.02% of 390,000 active; AID 624415; in the data active means activity change below about -50%; inconclusive means about -30% to -50%; inactive means above about -30%;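 further: stimulus is agonist 54-4 at its EC80 concentration; on the % scale 0 is the no-effect control and ±100 the full control effect; compound concentration not given in the record; the text of the record puts the active cut at -80%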
Target sequence (Q9GZU1 whole entry, looked up): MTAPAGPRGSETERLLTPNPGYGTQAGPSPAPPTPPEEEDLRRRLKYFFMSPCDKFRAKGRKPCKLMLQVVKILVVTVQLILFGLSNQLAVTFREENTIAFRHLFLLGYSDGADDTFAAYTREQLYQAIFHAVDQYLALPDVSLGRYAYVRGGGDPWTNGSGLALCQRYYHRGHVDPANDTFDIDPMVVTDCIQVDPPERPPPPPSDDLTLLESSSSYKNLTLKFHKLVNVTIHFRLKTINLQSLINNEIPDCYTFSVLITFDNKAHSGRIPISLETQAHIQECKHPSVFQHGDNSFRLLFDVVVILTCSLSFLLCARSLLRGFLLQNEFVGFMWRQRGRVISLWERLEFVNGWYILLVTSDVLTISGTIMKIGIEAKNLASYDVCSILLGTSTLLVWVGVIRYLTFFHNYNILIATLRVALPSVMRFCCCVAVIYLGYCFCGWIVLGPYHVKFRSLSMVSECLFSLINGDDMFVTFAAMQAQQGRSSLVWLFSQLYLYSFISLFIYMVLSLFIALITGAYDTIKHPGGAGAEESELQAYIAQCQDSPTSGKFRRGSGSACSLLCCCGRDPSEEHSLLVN
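TRPML1-DL cells, Tet-induced overnight (~16 h, 37 °C) at 1,500 cells/well, were loaded with Ca8 no-wash dye plus quencher for 45-90 min at room temperature. Compounds were pinned during FDSS kinetic reading; agonist 54-4 at EC80 (4 uM final) then added.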
CtBP-E1A inh: blocks the CtBP interaction with E1A. AlphaScreen GST-E1A/His-CtBP binding, 1536-well; active compounds read low; control for the full effect not named in the record. activity change, % (concentration not given with the values). 0.49% of 340,000 active. AID 651724; in the data active means activity change below about -65%; inconclusive means about -30% to -65%; inactive means above about -30%; further: on the % scale 0 is the no-effect control and ±100 the full control effect
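Protein mix (5X: 125 nM each GST-E1A, His-CtBP) was incubated with pinned compound 2 h at 37 deg C in dark, in 50 mM Tris pH 8.0 buffer with 300 mM NaCl. Glutathione donor and nickel acceptor beads followed; AlphaScreen signal read after 1 h.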
D2 ag: activates the human D2 dopamine receptor. AID 624465. 0.084% of 360,000 active. DiscoveRx PathHunter D2 beta-arrestin, luminescence, 90 min; 100% = 57 uM dopamine signal. activation, % (test concentration not listed); in the data active = activation above about 40%; inconclusive = about 15% to 40%; inactive = below about 15%; further: compound concentration not given in the record; the text of the record calls up to 30% inactive
Target sequence (P14416 whole entry, looked up): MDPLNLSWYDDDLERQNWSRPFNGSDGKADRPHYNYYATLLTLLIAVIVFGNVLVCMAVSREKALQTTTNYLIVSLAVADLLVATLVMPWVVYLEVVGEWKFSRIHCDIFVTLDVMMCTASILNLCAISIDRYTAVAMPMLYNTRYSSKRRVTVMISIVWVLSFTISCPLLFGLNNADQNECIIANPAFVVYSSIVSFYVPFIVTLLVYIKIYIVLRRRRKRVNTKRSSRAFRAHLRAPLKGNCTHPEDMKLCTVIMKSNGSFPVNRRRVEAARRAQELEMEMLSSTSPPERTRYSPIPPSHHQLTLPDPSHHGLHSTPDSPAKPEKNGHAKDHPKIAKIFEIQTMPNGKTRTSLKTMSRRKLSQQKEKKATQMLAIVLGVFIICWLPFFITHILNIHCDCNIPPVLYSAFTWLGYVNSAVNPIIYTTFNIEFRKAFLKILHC
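Agonist mode: compounds alone added to overnight-plated D2 PathHunter cells for 90 min at 37 C, with 57 uM final dopamine (EC100) defining full response. Beta-arrestin recruitment detected by chemiluminescent reagent, read after 1 h at ambient temperature.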
TRPML1 ag: activates the human TRPML1 channel | TRPML1-expressing cells, Ca2+ dye fluorescence, FDSS; host cell line not named in the record; reference of the full effect not given here | activation, % (concentration not given with the values) | 0.12% of 410,000 active | AID 624414; in the data active = activation above about 50%; inconclusive = about 30% to 50%; inactive = below about 30%; further: 0% is about no effect; the text of the record puts the active cut at 80%
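TRPML1-DL cells, Tet-induced overnight (~16 h, 37 degrees C), loaded 45-90 min at room temperature with Ca8 no-wash calcium dye plus quencher. FDSS fluorescence: 10 s baseline, compound pin-transfer, 110 s agonist read, then EC80 54-4 (4uM final) and 110 s antagonist read.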
An asterisk follows results filed as active; ? = inconclusive; . = no result given; & = joins results of further samples; [ ] = remark or other dose. Rows are unselected; about 1% have a hit in one of these screens.

SMILES	PINK1 expr mod	Six1-Eya2 blk	TRPML1 inh	CtBP-E1A inh	D2 ag	TRPML1 ag
CSCCC(NC(=O)c1ccc(Cl)cc1Cl)C(=O)N1CC(C)OC(C)C1 (stereo not drawn)	5.4%	12.1	-0.9	.	-4.1	-1.1
CN1CCN(C(=O)/C=C/c2cn(-c3ccccc3)nc2-c2ccc3c(c2)OCCO3)CC1	-2.8%	10.2	-12.9	22.6	-2.0	1.4
Fc1ccc([C@@H]2Nc3ccccc3[C@@H]3C=CC[C@@H]32)cc1	0.9%	.	-14.0	.	.	-0.3
CCOC(=O)c1c(C)[nH]c(C)c1C(=O)CSc1nc2ccccc2n1CC	8.9%	-19.1	2.8	-11.3	-4.5	1.0
CC/C(=C(/c1ccccc1)c1ccc(OCC[N+](C)(C)C)cc1)c1ccccc1	-1.5%	-1.2	2.4	-8.2	-0.7	0.3
COC(=O)CC1COc2ccccc2N1S(=O)(=O)c1ccc(OC)cc1 (stereo not drawn)	9.5%	3.1	10.0	-9.8	-3.7	-1.1
S=C1Nc2ccccc2CS1	-0.4%	9.6	-29.4	-5.6	-5.8	-0.4
COc1ccc(S(=O)(=O)N(C)c2ccc(C(=O)NCc3ccncc3)cc2)cc1	-1.5%	1.0	16.6	5.1	-2.2	1.0
COc1cc(CCC(=O)Nc2cc(C)cc(C)c2)cc(OC)c1OC	2.8%	13.6	0.9	.	7.6	-0.7
CCOC(=O)c1c(C)c(-c2ccccc2)n(CC(=O)NCCc2cccc(C)c2)c1C	0.4%	.	-0.5	.	.	-1.4
CCOC(=O)Cc1csc(/N=C/c2c(O)n(-c3ccc(C)cc3C)c(=O)c3ccccc23)n1	2.8%	5.6	16.4	-12.8	-2.3	0.8
COC(=O)C1(C(=O)OC)CCCCN(S(=O)(=O)c2ccc(C)cc2)CCC1	0.3%	5.7	.	-5.3	.	-0.9

Three structures out of the list, sorted by number of heavy atoms, ascending:
SMILES	PINK1 expr mod	Six1-Eya2 blk	TRPML1 inh	CtBP-E1A inh	D2 ag	TRPML1 ag
S=C1Nc2ccccc2CS1	-0.4%	9.6	-29.4	-5.6	-5.8	-0.4
CCOC(=O)c1c(C)[nH]c(C)c1C(=O)CSc1nc2ccccc2n1CC	8.9%	-19.1	2.8	-11.3	-4.5	1.0
CCOC(=O)c1c(C)c(-c2ccccc2)n(CC(=O)NCCc2cccc(C)c2)c1C	0.4%	.	-0.5	.	.	-1.4

Exported comma-delimited: 3 of the compounds above
structure,PINK1 expr mod,Six1-Eya2 blk,TRPML1 inh,CtBP-E1A inh,D2 ag,TRPML1 ag
CCOC(=O)c1c(C)c(-c2ccccc2)n(CC(=O)NCCc2cccc(C)c2)c1C,0.4%,.,-0.5,.,.,-1.4
CCOC(=O)Cc1csc(/N=C/c2c(O)n(-c3ccc(C)cc3C)c(=O)c3ccccc23)n1,2.8%,5.6,16.4,-12.8,-2.3,0.8
COC(=O)C1(C(=O)OC)CCCCN(S(=O)(=O)c2ccc(C)cc2)CCC1,0.3%,5.7,.,-5.3,.,-0.9

Continuation:
SMILES	PINK1 expr mod	Six1-Eya2 blk	TRPML1 inh	CtBP-E1A inh	D2 ag	TRPML1 ag
COC(=O)CCC(=O)Nc1ccc(S(=O)(=O)Nc2cc(OC)nc(OC)n2)cc1	-1.9%	4.6	0.3	3.8	1.5	1.8
O=C(CSc1nc2ccccc2n1CC(=O)N1CCCCC1)N1CCCCC1	0.5%	-0.3	2.9	5.3	-1.2	-0.4
COCC(=O)Nc1nc(-c2ccccc2)ns1	10.6%[38.3 µM]	3.0	12.0	2.2	10.9	2.9
CCCCOc1ccc(C)cc1CN(CCO)CCO	-1.4%[38.3 µM]	2.4	20.3	5.4	-3.5	0.4
CCc1nc(NCCN)c(C#N)c2c1CSC(C)(C)C2	2.4%	-3.7	-1.6	-13.3	-3.3	2.6
COc1ccc(C(C)=O)cc1CN(c1ccccc1OC)S(=O)(=O)c1cccs1	-0.1%	-5.9	-13.3	-2.2	0.9	0.9
COc1cc2c(cc1OC)-c1cc(NC3CC3)nc(=O)n1CC2	4.2%	?	12.7	?	-1.4	-0.4
CN1C(=O)NC(c2ccccc2)(C(F)(F)F)S/C1=C(/C#N)c1nnc(N2CCOCC2)n1-c1ccccc1 (stereo not drawn)	1.9%	-7.6	-5.6	-3.0	-2.4	0.1
CCSc1nc(C)nc2sc(C)c(C)c12	6.8%	9.3	.	8.4	1.3	.
Cc1cc(NC(=O)CSCC(=O)OCC(=O)c2cccc(Br)c2)no1	0.0%	-6.0	-2.2	-5.7	-6.3	-0.4
O=c1c(-c2ccccc2)c[nH]n1-c1cccc([N+](=O)[O-])c1	-1.5%	-7.1	5.1	-1.6	-2.3	0.6
COc1cccc(NC(=O)C(=O)NCC(c2cccnc2)N2CCN(c3ccccc3)CC2)c1 (stereo not drawn)	-2.2%	.	17.2	.	.	-0.1
COc1ccc([N+](=O)[O-])cc1NC(=O)C(C)OC(=O)C1c2ccccc2Oc2ccccc21 (stereo not drawn)	0.1%	-6.8	7.6	5.0	-1.8	2.0
O=C(c1ccc(Cl)c(Cl)c1)N1CCN(Cc2ccc3c(c2)OCO3)CC1	-0.7%	-16.3	1.2	-5.2	-2.8	0.8
Cc1nn(CC(=O)N/N=C/c2ccc3c(c2)OCO3)c(C)c1Br	?	8.6	-16.8	7.1	-1.2	-0.8
COCCOCC(=O)Nc1ccc(S(=O)(=O)Nc2cc(C)nc(C)n2)cc1	-0.3%	17.3	-1.1	.	3.2	-0.3
C[C@H](CO)N1C[C@H](C)[C@@H](CN(C)C(=O)Nc2ccccc2)Oc2ccc(NS(=O)(=O)c3ccccc3)cc2C1=O	-0.5%	-17.4	24.5	1.1	-4.6	-0.5
O=C(O)c1cc2ccc3ccccc3c2oc1=O	1.6%	-18.5	7.2	-8.1	-4.0	-1.0
COc1cc2[nH]c(=O)n(CCCC(=O)NCc3ccc(Cl)cc3)c(=O)c2cc1OC	1.0%	.	2.3	.	.	-0.8
CN(C)c1ccc(/C=N/NC(=O)c2ccn(C)n2)cc1	0.7%	3.3	-0.9	10.8	-4.9	0.1
CCOC(=O)c1c(C)[nH]c(C)c1S(=O)(=O)N1CCC(C(=O)NCc2cccc(C)c2)CC1	0.3%	.	-6.0	.	.	1.2
COc1ccccc1CNc1nc(NCc2cccs2)nc2ccsc12	?	-6.7	.	-2.4	-2.9	3.2
Cc1ccc(C)c2[nH]c(=O)c(C(c3nnnn3C3CCCC3)N3CCOCC3)cc12 (stereo not drawn)	4.6%[38.3 µM]	2.8	6.3	3.2	-0.1	0.7
CC(C)(C)c1ccc(OCCC(=O)OCC(=O)N2c3ccccc3NC(=O)C2(C)C)cc1	?	-9.3	-0.9	-8.3	-2.2	1.4
CC[C@]12C(=O)N(C)C[C@H]([C@@H]3C(=O)N(Cc4ccccc4)C(=O)[C@@H]31)N2C(=O)c1ccc(C(F)(F)F)cc1	2.0%	-0.4	-4.2	6.0	-2.2	-0.1
CCOC(=O)C1=C(C)N(c2ccccc2)C(=O)NC1c1cccc([N+](=O)[O-])c1 (stereo not drawn)	1.3%	-3.6	53.7	0.0	-5.4	-1.6
COc1ccc(CCN(C)C(=O)c2ccc(COc3ccccc3)o2)cc1OC	-1.0%	8.1	14.3	-4.9	2.8	0.3
Cc1cc(C)c2c(CC(=O)N(Cc3ccccc3)C3CCS(=O)(=O)C3)coc2c1 (stereo not drawn)	0.0%	.	-6.1	.	.	1.6
O=c1cc[nH]c2cccc(Cc3ccccc3)c12	0.7%	-0.3	-14.1	3.5	2.4	-0.9
Fc1cccc(Cl)c1Cn1c(-c2cccs2)nc2ccccc21	0.9%	.	17.1	.	.	1.6
CCCOC(=O)c1ccc(NC(=O)CCC(=O)OCC)cc1	-1.0%	8.4	5.6	13.8	0.6	0.8
O=C(Nc1ccc(COc2ccccc2)cc1)Nc1cccc(C(=O)O)c1	0.0%	-2.7	-2.7	.	-3.8	1.1
Cn1c(=O)n(Cc2ccc(F)cc2)c(=O)c2c1nc1n2CCCN1C1CCCCC1	1.0%	2.7	2.7	2.6	-1.6	1.7
CC(C)c1ccc(NC(=O)c2cc3c(=O)oc4ccccc4c3s2)cc1	1.2%	.	19.9	.	.	0.0
O=S(=O)(c1ccc2ccccc2c1)N1CCC(c2nc(-c3ccncc3)no2)CC1	-1.6%[38.3 µM]	0.7	-4.8	-4.2	-0.7	3.0
CCOc1ccc(CN(C(=O)c2oc3cc(C)ccc3c2C)C2CCS(=O)(=O)C2)cc1 (stereo not drawn)	1.8%[38.3 µM]	-3.3	12.1	-2.5	-4.6	1.3

Reprinted at random: 2 records from the list, in no set order.
SMILES	PINK1 expr mod	Six1-Eya2 blk	TRPML1 inh	CtBP-E1A inh	D2 ag	TRPML1 ag
CCCOC(=O)c1ccc(NC(=O)CCC(=O)OCC)cc1	-1.0%	8.4	5.6	13.8	0.6	0.8
CCOc1ccc(CN(C(=O)c2oc3cc(C)ccc3c2C)C2CCS(=O)(=O)C2)cc1 (stereo not drawn)	1.8%[38.3 µM]	-3.3	12.1	-2.5	-4.6	1.3

New compounds follow
SMILES	PINK1 expr mod	Six1-Eya2 blk	TRPML1 inh	CtBP-E1A inh	D2 ag	TRPML1 ag
COc1ccc(C)cc1S(=O)(=O)Nc1ccc2c(c1)N(C(C)=O)CCC2	-0.2%	3.7	-14.6	0.5	2.2	-0.3
O=C(Nc1ccc(Br)cn1)c1cccc(C(=O)Nc2ccc(Br)cn2)c1	8.1%	-6.6	-16.9	12.5	-1.5	0.1
O=C(Nc1ccccc1Cl)c1cc(C2CCCCN2C(=O)OCCF)on1 (stereo not drawn)	-0.5%	4.9	.	10.2	-3.6	-0.5
CC(C)CCNC(=O)c1ccc(Cn2c(=S)[nH]c3ccccc3c2=O)cc1	7.5%	7.9	4.8	3.2	2.9	2.7
CSc1ccc(CNC(=O)CCn2ccc3cc(S(=O)(=O)N4CCCC4)ccc32)cc1	0.3%&-0.1%	-5.2	11.7&25.3	-5.4	-2.1	-0.7&1.6
O=C(N/N=C/c1cccc(Cl)c1)c1c(O)c2c([nH]c1=O)CCCC2	20.0%	0.2	2.0	3.6	5.2	0.5
CSc1n[nH]c(NCc2cccs2)n1	?	6.8	-11.3	4.5	-2.7	1.3
CCc1ccc(N(CC(=O)N2CCCC2)S(C)(=O)=O)cc1	1.0%	11.0	-17.7	-4.1	-3.7	-0.1
CC(=O)Oc1cccc(/C=C2\Sc3ccccc3C2=O)c1	7.1%	3.2	0.9	-12.1	-2.9	8.8
CCC(CO)n1c(=S)[nH]c2cc(OC)c(OC)cc2c1=O (stereo not drawn)	0.2%	-5.0	-7.0	-9.1	-4.4	0.1
N#C/C(=N\Nc1ccc(F)cc1)C(=O)C1CC1	10.1%	-17.9	-16.2	-5.9	-7.1	0.2
Cn1c(CNC(=O)C2CCC(=O)N(CCc3cccc(F)c3)C2)nc2ccccc21 (stereo not drawn)	0.2%	0.6	-11.8	11.4	1.5	-0.3
